HNF4A DNA FP: change in binding of human HNF4 alpha to DNA | P41235 | hit rate 0.3% among 360,000 | activity change, % at 10 µM | HNF4a-FITC DNA binding, fluorescence polarization, 1 h; in the data active = activity change above about 30%, passing the limit was not always enough;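 also: controls were the assay level and a saturating level of protein; the project sought stronger binding though the title names inhibitors; some compounds called inactive have numbers as strong as hits; positive values seem to mean higher polarization but the record does not say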
Target sequence (P41235 whole entry, looked up): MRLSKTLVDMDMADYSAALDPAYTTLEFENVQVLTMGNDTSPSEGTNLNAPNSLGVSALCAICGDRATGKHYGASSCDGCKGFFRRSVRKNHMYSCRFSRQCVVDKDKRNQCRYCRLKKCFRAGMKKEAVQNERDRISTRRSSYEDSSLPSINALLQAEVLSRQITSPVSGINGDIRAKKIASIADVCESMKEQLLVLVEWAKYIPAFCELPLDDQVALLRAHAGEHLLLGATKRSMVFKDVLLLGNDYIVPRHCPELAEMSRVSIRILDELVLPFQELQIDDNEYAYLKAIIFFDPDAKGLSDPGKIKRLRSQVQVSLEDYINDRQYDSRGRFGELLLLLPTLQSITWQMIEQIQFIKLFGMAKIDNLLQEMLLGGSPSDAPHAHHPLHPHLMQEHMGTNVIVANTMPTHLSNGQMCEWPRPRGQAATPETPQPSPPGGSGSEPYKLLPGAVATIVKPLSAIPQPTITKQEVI
Starred values were filed as active, the others as inactive. Not all compounds are listed, so the mix of outcomes need not match the whole.

The first 13 entries (preview)
SMILES	HNF4A DNA FP
O=C(C[n+]1ccc2ccccc2c1)c1ccc2ccc3ccccc3c2c1	-14
CCc1ccc(OC2(C)CCN(Cc3ccc4c(c3)OCCO4)C2)cc1 (stereo unspecified)	1.9
CC(=O)NC(c1cccc(F)c1)c1nc(-c2ccoc2)cs1 (stereo unspecified)	-1.4
O=C(NCc1cccc(C(F)(F)F)c1)c1ccc2nc([C@@H]3O[C@H](CO)[C@@H](O)[C@H]3O)[nH]c2c1	4.5
CCN(C(=O)c1ccc(NC(=O)C2CCCCC2C(=O)O)cc1)c1ccccc1 (stereo unspecified)	-3.4
Cc1ccccc1C(NC(=O)C1CCN(Cc2ccc(Oc3ccccc3)cc2)CC1)c1ccsc1 (stereo unspecified)	0.5
Cc1cccc(C)c1NC(=O)Nc1nnc([C@@H]2C[C@H](O)[C@@H](CO)O2)s1	-0.5
CCc1nc2ccc(C(=O)N3CCN(C(=O)c4ccco4)CC3)cn2c1N(CC)CCOC	-1.1
CCc1nc2c(OCC(=O)C(C)(C)C)cccn2c1N(C=O)CC(=O)N(C)C	-1.7
Cc1nc2c(OCc3ccc(OC(F)F)cc3)cccn2c1N(C)C(=O)CCC1CCCC1	1.2
CC(=O)C[C@@H]1OC2CCCCC2N1S(=O)(=O)c1ccc(C)cc1 (stereo partly specified)	5.4
CC(C)(C)NC(=O)C(c1ccc(C#N)cc1)n1c(=O)c(-c2ccccc2)nc2ccccc21 (stereo unspecified)	-0.6
CN1C(=O)[C@@](O)(c2cn(C)c3ccccc23)c2cc(Br)ccc21	-1.5

All compounds of this part, from the start:
SMILES	HNF4A DNA FP
O=C(C[n+]1ccc2ccccc2c1)c1ccc2ccc3ccccc3c2c1	-14
CCc1ccc(OC2(C)CCN(Cc3ccc4c(c3)OCCO4)C2)cc1 (stereo unspecified)	1.9
CC(=O)NC(c1cccc(F)c1)c1nc(-c2ccoc2)cs1 (stereo unspecified)	-1.4
O=C(NCc1cccc(C(F)(F)F)c1)c1ccc2nc([C@@H]3O[C@H](CO)[C@@H](O)[C@H]3O)[nH]c2c1	4.5
CCN(C(=O)c1ccc(NC(=O)C2CCCCC2C(=O)O)cc1)c1ccccc1 (stereo unspecified)	-3.4
Cc1ccccc1C(NC(=O)C1CCN(Cc2ccc(Oc3ccccc3)cc2)CC1)c1ccsc1 (stereo unspecified)	0.5
Cc1cccc(C)c1NC(=O)Nc1nnc([C@@H]2C[C@H](O)[C@@H](CO)O2)s1	-0.5
CCc1nc2ccc(C(=O)N3CCN(C(=O)c4ccco4)CC3)cn2c1N(CC)CCOC	-1.1
CCc1nc2c(OCC(=O)C(C)(C)C)cccn2c1N(C=O)CC(=O)N(C)C	-1.7
Cc1nc2c(OCc3ccc(OC(F)F)cc3)cccn2c1N(C)C(=O)CCC1CCCC1	1.2
CC(=O)C[C@@H]1OC2CCCCC2N1S(=O)(=O)c1ccc(C)cc1 (stereo partly specified)	5.4
CC(C)(C)NC(=O)C(c1ccc(C#N)cc1)n1c(=O)c(-c2ccccc2)nc2ccccc21 (stereo unspecified)	-0.6
CN1C(=O)[C@@](O)(c2cn(C)c3ccccc23)c2cc(Br)ccc21	-1.5
CC(C)(C)n1nnnc1C(c1ccccc1)N1CCN(c2ncccn2)CC1 (stereo unspecified)	0.1
CCOC(=O)[C@]12CCCC=C1N(Cc1ccc(Cl)cc1Cl)C(=O)[C@H](CC(=O)NCCCOC)C2	-0.9
CN(C)CCCNc1nc2cc(-c3cnn(Cc4ccccc4)c3)sc2c(=O)n1C	2.4
CC(=O)Nc1ccc(CNc2nc3cc(-c4cccc(C(F)(F)F)c4)sc3c(=O)n2C)cc1	2.7
CN(C)CCCN(C(=O)c1ccc(S(=O)(=O)N2CCCCCC2)cc1)c1nc2cc3c(cc2s1)OCO3	1.5
O=S1(=O)CC(N2CCN(CCO)CC2)CN1CCc1ccccc1 (stereo unspecified)	6.5
CC(=O)Nc1ccc(C(=O)N2CCCCC2c2cc(C(=O)Nc3ccccc3Cl)no2)cc1 (stereo unspecified)	-0.9
C#CCNC(=O)C[C@@H]1C[C@@]2(C(=O)OCC)CCC=C2N(Cc2ccco2)C1=O	-2.1
O=C(Nc1ccc2c(c1)OCO2)c1cc(C2CCCN(C(=O)CCc3ccccc3)C2)on1 (stereo unspecified)	6.1
CCCN(C)C1CN(Cc2cn(Cc3cccc(C(F)(F)F)c3)nn2)S(=O)(=O)C1 (stereo unspecified)	-0.4
O=C(O)c1ccc2c(c1)C(=O)N([C@H](Cc1cccc3ccccc13)C(=O)O)C2=O	-0.4
O=C(COC(=O)c1ccccc1SCC(=O)N1CCCC1)NCc1ccc(F)cc1	-1.0
CC(=O)NC(c1ccccc1)c1nc(-c2cccc(C(F)(F)F)c2)cs1 (stereo unspecified)	-2.6
Fc1ccc(-c2nc3c(Cl)cc(C(F)(F)F)cn3c2Cc2cccc(F)c2)cc1	-0.8
Cn1cc(Cc2ccc(C(=O)N3CCOCC3)cn2)c2ccccc21	1.0
CC(=O)Nc1ccc(CNc2nc(NCCN(C)C)nc3cc(-c4ccccc4)sc23)cc1	28
CCOC(=O)[C@]12CCCC=C1N(Cc1ccc3c(c1)OCO3)C(=O)[C@H](CC(=O)N1CCCC1)C2	1.1
CCCS(=O)(=O)NC(=O)C1(C)CCCN(C(=O)c2ccc(SC(F)(F)F)cc2)C1 (stereo unspecified)	-3.4
COc1cc(Cn2c3ccc(NC(=O)CCc4ccc(O)cc4)cc3c(=O)n2C)ccc1F	1.9
COc1ccc(C)cc1-n1nnnc1SCc1nc(N)nc(N(C)C)n1	2.1
CN(C)C(=O)c1cccc(-c2cnc3c(NC=O)cc(-c4ccccc4N(C)C)cn23)c1	-100
COc1ccc(Cc2c(-c3ccc(C)cc3)nc3ccc(Cl)cn23)c(C)c1	18
O=C(CC[C@H]1O[C@@H](n2cnc3c(NC(=O)c4ccccc4)ncnc32)[C@H](O)[C@@H]1O)NCc1ccccn1	3.7
COc1ccc(C(C(=O)Nc2ccc(F)cc2)N2CCN(c3ccncc3)CC2)cc1 (stereo unspecified)	-0.8
CCc1ccccc1OCC(=O)Nc1nnc(C2CC2)s1	0.1
COC(=O)C[C@@H]1C=C[C@H](NC(=O)c2ccccc2)[C@@H](CO)O1	0.8
CC(C)C[C@@H](CN1CCC[C@H]1CN1C(=O)C(=O)NC[C@@H]1Cc1ccccc1)N1C[C@H](Cc2ccccc2)N(CC2CCCCCC2)C(=O)C1=O	-2.7
O=C(c1[nH]c(C(F)(F)F)nc1-c1ccccc1)N1CCC2(CC1)C(=O)NCN2c1ccccc1	6.2
Nc1[nH]c(C(=O)c2ccccc2)c(-c2ccccc2Br)c1C(=O)c1ccccc1	-0.6
Cc1c(Br)cccc1NC(=O)C1(C)CCN1C(C)C (stereo unspecified)	1.4
CC1=C(C(=O)N2CCOCC2)CC(CC(=O)NCc2ccco2)C(=O)N1Cc1ccc(C(C)(C)C)cc1 (stereo unspecified)	-4.1
CCOC(=O)C1CCCN(C(=O)C2(c3ccc(Cl)cc3)CCCC2)CC1 (stereo unspecified)	3.9
COc1ccc(-c2nc(NCCN(C)C)nc3ccsc23)c(C)c1	1.3
CC1(C(=O)Nc2ccc3[nH]ncc3c2)CCN1C(=O)Cc1ccc(-c2ccccc2)cc1 (stereo unspecified)	-2.5
CC1CCC(C(C)C)C(NC(=O)c2ccncc2)C1 (stereo unspecified)	1.2
COc1ccccc1OCCn1nc2ccccc2c1OC	4.3
COc1ccc(C(C)=O)cc1Cn1c(C)c(C(=O)NC2CC2)sc1=O	0.1
CCCCn1nnnc1C1(C)CCC(=O)N1CC(F)(F)F (stereo unspecified)	2.2
CC(C)(C)C(=O)Nc1nnc([C@H]2C[C@H](O)[C@@H](CO)O2)s1	-2.0
CC1(C(=O)NS(=O)(=O)c2ccc(F)cc2F)CCN1C(=O)CCc1ccc(Cl)cc1Cl (stereo unspecified)	-4.7
COc1cccc(-c2nc3nc(C)cc(C)n3c2NC2CCCC2)c1	3.6
O=C(Nc1ccc2c(c1)OCO2)c1ccc2sc([C@@H]3O[C@H](CO)[C@@H](O)[C@H]3O)nc2c1	1.4
Cc1cccc2sc(=S)[nH]c12	3.4
CCOC(=O)C1(C)CCN1C(=O)c1ccccc1C (stereo unspecified)	2.8
C[C@H]1CN([C@@H](C)CO)C(=O)CCCn2cc(nn2)CO[C@@H]1CN(C)C(=O)Nc1ccc(N2CCCCC2)cc1	4.2
CC(C)c1ccc(CC(=O)N2CCC2(C)C(=O)Nc2ccccc2)cc1 (stereo unspecified)	-0.1
CCOc1ccc(CCN2C(=O)C(=O)N([C@@H](Cc3ccccc3)CN3CCC[C@H]3CN3C(=O)C(=O)NC[C@@H]3Cc3ccc(O)cc3)C[C@@H]2CC(C)C)cc1	0.0

Further compounds
SMILES	HNF4A DNA FP
CCc1nc2ccc(C(=O)NCc3cccs3)cn2c1N(C)Cc1nccs1	4.2
COc1ccc(C2=Nc3ccccc3N(C(=O)c3ccncc3)C2C(=O)NC(C)C)cc1 (stereo unspecified)	0.9
CCOC(=O)[C@]12CCCC=C1N(CCc1ccc(OC)c(OC)c1)C(=O)[C@H](CC(=O)NCc1ccc(C)o1)C2	-3.9
CC1Sc2ccc(C#N)cc2N(Cc2cccc(C(F)(F)F)c2)C1=O (stereo unspecified)	-5.9
CSc1ccccc1-c1cnc(NC(C)=O)cn1	-2.6
CCCCc1c(-c2ccccc2OC)ncn1CCc1ccccc1OC	3.1
CCNC(=O)C[C@@H]1C=C[C@@H](NS(=O)(=O)c2ccc(F)cc2)[C@@H](CO)O1	0.7
CCOC1=C2CN(S(=O)(=O)c3ccccc3)[C@H](c3ccccc3)C[C@H]2n2c(=O)n(-c3ccccc3)c(=O)n2C1	4.0
c1ccc(COc2cccc(-c3cc4nc(NCCc5ccncc5)ccn4n3)c2)cc1	3.6
CCOc1ccc(CCN2C(=O)C(=O)N([C@@H](CC(C)C)CN3CCC[C@H]3CN3C(=O)C(=O)NC[C@@H]3Cc3ccccc3)C[C@@H]2Cc2ccccc2)cc1	4.0
O=C1Nc2ccccc2-n2nnnc2C1N1CCCN(Cc2ccc(F)cc2)CC1 (stereo unspecified)	-1.5
COc1ccccc1Cc1c(-c2ccc(C#N)cc2)nc2ccc(C)cn12	4.9
CC(C)NC(=O)C1(C)CN(S(C)(=O)=O)CC(=O)N1Cc1cccc(F)c1 (stereo unspecified)	3.2
Cn1nc(C2CC2)cc1NC(=O)C1(C)CCN1C(=O)c1ccccc1CCc1ccccc1 (stereo unspecified)	-2.6
COc1ccc(-c2csc(C(O)c3ccccc3)n2)cc1 (stereo unspecified)	-0.2
CC1(C(=O)NCC2CCOCC2)Cc2c(-c3cccc(C(N)=O)c3)ccnc2O1 (stereo unspecified)	2.0
CCCC[C@@H]1CC2=C(C(=O)OC(C)(C)O2)[C@H](c2ccc(C(C)C)cc2)O1	2.4
COC(=O)[C@@]12C[C@@H](CC(=O)N3CCSCC3)C(=O)N(Cc3ccc4c(c3)OCO4)C1=CCC(C)(C)C2	1.0
CCCCn1nnnc1C(c1cc2ccccc2o1)N1CCN(c2c(C)cccc2C)CC1 (stereo unspecified)	-3.1
O=C(NCCc1ccc(Cl)cc1)c1cc(S(=O)(=O)N2CCCC2)ccc1F	3.5
COc1ccccc1C(C(=O)c1ccccc1)c1ccc2ccccc2c1 (stereo unspecified)	2.4
Cc1cc(Br)cn2c(Cc3ccccc3C(F)(F)F)c(-c3ccccc3)nc12	1.0
Oc1ccc(Cl)c(CN2CCN(c3ncc(Cc4ccccc4)cn3)CC2)c1	1.8
O=C1c2ccccc2[C@@H]2Cc3csc[n+]3[C@H]12	1.6
O=C(Nc1ccccc1)c1cc(C2CCCCN2C(=O)OCc2ccccc2)on1 (stereo unspecified)	1.6
O=C(NC1CC1)c1ccc2nc([C@H]3C[C@H](O)[C@@H](CO)O3)[nH]c2c1	1.8
Cc1cc(Br)cn2c(Cc3ccccc3)c(C3CCCCC3)nc12	-0.4
COc1ncccc1-c1cc2nc(NCCNC(C)=O)n(C)c(=O)c2s1	1.5
CC(C)C[C@H]1CNC(=O)C(=O)N1C[C@@H]1CCCN1C[C@H](Cc1ccc(O)cc1)N1C[C@H](Cc2ccccc2)N(CC2CCCCC2)C(=O)C1=O	2.6
CCOC(=O)C1(C)CCN1C(=O)c1ccccc1OC(F)(F)F (stereo unspecified)	4.2
Oc1ccc(C[C@H]2CNC(=S)N2CC2CCCN2C[C@H](Cc2ccccc2)N2C[C@H](Cc3ccc(O)cc3)N(CC3CCCCC3)C2=S)cc1 (stereo partly specified)	-0.7
C[C@H]1CN([C@@H](C)CO)C(=O)CCCn2nncc2CO[C@@H]1CN(C)Cc1ccccc1	3.4
OC(c1ccc(CN2CCCCC2)cc1)c1ncc(-c2ccccc2F)[nH]1 (stereo unspecified)	-6.1
CCc1nc2ccc(C(=O)NCCCN3CCCC3=O)cn2c1N(C=O)CC	0.8
N#Cc1ccc2c(=O)n(-c3ccccc3)sc2c1	3.5
c1cn2c(-c3ccoc3)cncc2n1	-4.3
COC(=O)c1nc(-c2ccc(C)cc2)[nH]c1C(C)(C)C	0.1
C[C@H]1CN([C@@H](C)CO)C(=O)CCCn2nncc2CO[C@H]1CN(C)C(=O)c1ccc(N2CCN(C)CC2)cc1	-1.6
O=C(c1cccc(S(=O)(=O)N2CCOCC2)c1)N1CCN(c2ncccn2)CC1	-1.3
COc1cc(-c2cc(NC=O)c3ncc(-c4ccc(F)cc4)n3c2)cc(OC)c1OC	3.7
Cc1ccc(OCCCN2CCC(C(O)(c3ccccc3)c3ccccc3)CC2)cc1	-3.1
CC(C)(C)c1ccc(C(=O)N2CCC2(C)C(=O)NCCC#N)cc1 (stereo unspecified)	5.0
CC(=O)NC(C)(c1ccccc1)c1nc(-c2cnc3ccccc3c2)cs1 (stereo unspecified)	4.1
Cc1ccc(F)cc1C(=O)N1CCCC(c2cc(C(=O)NCc3ccc(F)cc3)no2)C1 (stereo unspecified)	0.8
CN(Cc1c(C(=O)N/N=C/c2c(F)cccc2Cl)nnn1-c1nonc1N)C1CCCCC1	1.1
CCOC(=O)[C@]12CCCC=C1N(Cc1ccco1)C(=O)[C@H](CC(=O)NCCC(C)C)C2	-0.3
O=C(NCc1cccc(C(F)(F)F)c1)c1ccc2sc(C3=C[C@@H](O)[C@@H](O)[C@@H](CO)O3)nc2c1	3.7
Cn1c(Oc2ccncc2)nc2cc(-c3ccsc3)sc2c1=O	-2.6

Compound activity (PubChem BioAssay)
